High-throughput results as filed in PubChem.
ClpP mod = qHTS Assay for Activators of ClpP | purified B. subtilis ClpP, FRET peptide cleavage, 20 min | Potency, µM (titrated, usually from 57.5 µM), inactives show at the highest dose activity change, negative = active | AID 651965, 2013 | ATP-dependent Clp protease proteolytic subunit (Bacillus subtilis (strain 168)), P80244 | 340,000 tested, 1.9% active; active = well fitted falling curve with a large enough effect; inconclusive = small, poorly fitted or top-dose-only effect; inactive = no such curve, though single readings can be large or run the other way; also: potency is read from the fitted curve at half-maximal effect; the source files actives as falling curves though it sought activators and does not explain the sign; nearly all actives have a fitted effect of over 65% in size; many hits overshoot -100%
Target sequence (P80244 whole entry, looked up): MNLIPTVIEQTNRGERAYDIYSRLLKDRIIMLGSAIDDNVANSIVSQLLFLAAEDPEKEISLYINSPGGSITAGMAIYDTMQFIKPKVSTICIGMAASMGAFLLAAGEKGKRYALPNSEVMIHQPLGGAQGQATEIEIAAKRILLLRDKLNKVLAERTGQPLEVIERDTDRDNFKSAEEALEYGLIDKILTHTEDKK
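ClpP 10 microg/mL final, pH 8 Tris/KCl buffer with BSA, glycerol, Tween-20; compound pinned in; FRET-FV substrate; RT 20 min; Ex320/Em430; ΔFRET vs ADEP 5.8 microM, DMSO, no enzyme.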
Menin-MLL FL inh = qHTS Assay for Inhibitors Targeting the Menin-MLL Interaction in MLL Related Leukemias: Competition With Fluorescein Labeled MLL-derived Peptide. Fluorescence polarization, fluorescein-MLL peptide displacement from menin. FP activity change, % at 61.4 µM. 290,000 tested, under 10 active. AID 1766, 2009; inconclusive = falling polarisation curve, or a change in total fluorescence; inactive = total fluorescence flat and polarisation flat or rising; no compound was filed as active; the % refers to the polarisation; negative = inhibition;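 also: % of control where 0% means no effect; inhibitors lower the polarisation; unlabelled MLL peptide was the positive control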
D2 ag = Beta-Arrestin HTS for Positive Allosteric Modulators of the Human D2 Dopamine Receptor: Agonists; D(2) dopamine receptor (Homo sapiens), P14416; DiscoveRx PathHunter D2 beta-arrestin, luminescence, 90 min; 100% = 57 uM dopamine signal; activation, % (concentration not given with the values); 360,000 tested, 0.084% active; in the data active = activation above about 40%; inconclusive = about 15% to 40%; inactive = below about 15%; also: compound concentration not given in the record; the text of the record calls up to 30% inactive
Target sequence (P14416 whole entry, looked up): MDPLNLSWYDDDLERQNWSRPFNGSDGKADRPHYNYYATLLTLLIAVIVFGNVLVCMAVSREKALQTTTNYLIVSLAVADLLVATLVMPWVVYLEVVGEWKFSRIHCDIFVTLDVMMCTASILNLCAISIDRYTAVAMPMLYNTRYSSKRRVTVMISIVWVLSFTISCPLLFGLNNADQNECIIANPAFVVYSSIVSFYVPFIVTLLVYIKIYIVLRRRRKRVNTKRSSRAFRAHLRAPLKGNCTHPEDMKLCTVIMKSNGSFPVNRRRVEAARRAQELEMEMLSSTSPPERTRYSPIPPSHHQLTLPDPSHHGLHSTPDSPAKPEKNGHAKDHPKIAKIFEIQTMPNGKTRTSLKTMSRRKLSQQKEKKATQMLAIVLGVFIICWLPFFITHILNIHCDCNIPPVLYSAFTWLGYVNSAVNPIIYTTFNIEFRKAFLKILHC
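Agonist mode: compounds alone added to overnight-plated D2 PathHunter cells for 90 min at 37 C, with 57 uM final dopamine (EC100) defining full response. Beta-arrestin recruitment detected by chemiluminescent reagent, read after 1 h at ambient temperature.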
PINK1 expr mod = A Quantitative High throughput Screen to Identify Chemical Modulators of PINK1 Expression; PINK1 immunofluorescence, high-content cytometry, 24 h; Potency, µM (top dose mostly 76.6 µM), inactives show top-dose activation (PINK1 increase), most hits filed as activators; 410,000 tested, 0.2% active; active = well fitted activation curve with a large enough effect; inconclusive = small, poorly fitted or top-dose-only effect; inactive = flat fitted curve, though single readings scatter; cell line not stated here;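 also: potency is read from the fitted curve at half-maximal effect; % of control where 0% means no effect; nearly all actives have a fitted effect of over 65% in size; a mitochondrial uncoupler was the plate control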
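Fluorescence from anti-PINK1 antibody, together with nuclear and cell stains, was scanned on a laser-scanning cytometer. Before staining, stable-line cells were incubated 24 hours with compounds at 5 concentrations; primary antibody 12 h at 10 degrees C.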
gsp antagonist = qHTS for Antagonists of gsp, the Etiologic Mutation Responsible for Fibrous Dysplasia/McCune-Albright Syndrome: qHTS | gsp-mutant cells, cAMP HTRF, 30 min; control for the full effect not named in the record | Potency, µM (series often up to 76.9 µM), inactives show top-dose activity change, negative = inhibition, usual class: inhibitors | 340,000 tested, 0.4% active | AID 624288, 2012; active = falling curve of any shape with a large fitted effect; inconclusive = falling curve, mostly with a smaller effect; inactive = flat or rising curve; cell line not stated here;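 also: intracellular cAMP measured with PDE inhibitor Ro 20-1724 present during compound exposure; potency is read from the fitted curve at half-maximal effect; % is scaled to controls: 0 for no effect and ±100 for the full control effect; nearly all actives have a fitted effect of over 65% in size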
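HTRF cAMP measurement after 30 min RT detection following 30 min, 37C compound treatment alongside […] (added as 300 uM solution) in G418-selected cells seeded at 2000/well and grown 16–24 h.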
Sfp PPTase inh = qHTS Assay for Inhibitors of Bacillus subtilis Sfp phosphopantetheinyl transferase (PPTase). 4'-phosphopantetheinyl transferase ffp (Bacillus subtilis), Q9F4F7. Biochemical Sfp PPTase activity, qHTS. Potency, µM, for inactives: max response, negative = inhibition, hits mostly inhibitors. 310,000 tested, 3.5% active. AID 1490, 2009; active = well fitted inhibition curve with a large enough effect; inconclusive = small, poorly fitted or top-dose-only effect, or another doubt; inactive = no such curve, though single readings can be large or run the other way;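 also: the enzyme is Sfp with the accession as filed and its product quenches rhodamine fluorescence; potency is read from the fitted curve at half-maximal effect; 0% = enzyme reaction without inhibitor and -100% = no enzyme wells; top concentration of the series not given in the record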
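Fluorescence-quenching assay with 15 nM Sfp, 5 uM rhodamine-CoA and 12.5 uM BHQ-2-labelled ybbR peptide in pH 7.6 Hepes/MgCl2 buffer. Enzyme was pre-incubated with compound for 15 min at room temperature. Rate was taken from the 30-min fluorescence change (525/598 nm).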
gsp ag = qHTS for Agonist of gsp, the Etiologic Mutation Responsible for Fibrous Dysplasia/McCune-Albright Syndrome: qHTS. Potency, µM (series often up to 76.9 µM), inactives show at the highest dose activation (cAMP increase), most hits filed as activators. 340,000 tested, 0.13% active. AID 624287, 2012. gsp mutant cells, cAMP HTRF, 30 min; control for the full effect not named in the record; active = well fitted activation curve with a large enough effect; inconclusive = small, poorly fitted or top-dose-only effect, or another doubt; inactive = no such curve, though single readings can be large or run the other way; cell line not stated here;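 also: phosphodiesterase inhibitor Ro 20-1724 added with compounds to block cAMP breakdown; potency is read from the fitted curve at half-maximal effect; nearly all actives have a fitted effect of over 60% in size; about a fifth of the inactives were tested at one dose only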
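Cells stably selected in G418 were plated at 2000/well, grown 16-24 hr, then given compounds in DMSO with the PDE inhibitor […] (300 uM solution added) for 30 min at 37C; cAMP was read by HTRF.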
The depositor's hits bear a star; u = inconclusive; x = no result given; & = joins results of further samples; [ ] = dose if it differs, or a comment.

SMILES | ClpP mod | Menin-MLL FL inh | D2 ag | PINK1 expr mod | gsp antagonist | Sfp PPTase inh | gsp ag
COc1ccc(CNC(=O)/C(C)=C\C(=O)O)cc1 | x | 1.6 | 1.4 | 0.3% | 7.1% | 5.2% | 4.0%[15.4 µM]
CCc1ccc(N=CC23c4ccccc4C(c4ccccc42)C2C(=O)N(c4ccc(OC)cc4)C(=O)C23)cc1 (stereo unspecified) | 0.0% | -0.9 | -4.6 | -0.8% | -0.3% | 6.3% | -64.6%[inhibitor]
CN(C)CCOCCOc1ccc(Cl)c2ccccc12 | x | 7.2 | -3.9 | 2.5% | -19.2% | u | 29.3%[15.4 µM]
COc1ccc(N(CC(=O)Nc2cccc(N(C)S(C)(=O)=O)c2)S(=O)(=O)c2ccc(F)cc2)cc1 | 0.0% | 4.1 | -1.1 | 0.4% | -17.4% | 7.7% | u
CC(=O)NC1=NN(C(C)=O)C(C)(c2cccs2)S1 (stereo unspecified) | -4.0% | 1.2 | -2.4 | 2.8% | 1.7% | 10.3% | -19.2%
CCC1c2ccc(C)n2CCN1C(=O)Nc1cc(Cl)ccc1OC (stereo unspecified) | -2.0% | 4.0 | -4.2 | -0.4% | -2.8% | -8.3% | 4.5%
CCCn1nnnc1SCC(=O)NCc1ccc2c(c1)OCO2 | -0.3% | 3.2 | -3.9 | -1.3% | 1.9% | -5.1% | 1.9%
COC(=O)c1ccc(OCC(O)CN2C(=O)c3ccccc3C2=O)cc1 (stereo unspecified) | -1.5% | -0.5 | 0.8 | -0.3% | -12.8% | -0.1% | 21.1%
Cc1nnc(SCC(=O)N(C(C)C)C(C)C)nc1C | -1.2% | 6.3 | -0.3 | 1.1% | -1.9% | 14.2% | 19.4%
Cc1ccccc1CN1CCC(n2nccc2NC(=O)c2cccnc2)CC1 | -0.7% | 0.7 | -3.0 | 2.2% | -1.6% | 10.5% | 17.6%
CN(C)C(CNC(=O)CCc1c[nH]c2ccccc12)c1ccccc1 (stereo unspecified) | u | -1.1 | -2.3 | -3.1% | -11.7% | 6.0% | -12.5%[15.4 µM]
CCc1cc(C(=O)Nc2cc(S(=O)(=O)N(CC)CC)ccc2N2CCN(C)CC2)sc1C | x | x | -0.3 | 2.7% | -0.9% | x | 32.4%[15.4 µM]
COc1ccc(NC(=O)/C(N=Nc2cc(S(=O)(=O)Nc3ccc(OC)cc3)ccc2OC)=C(\C)O)cc1 | 0.3% | 3.0 | -2.7 | 12.8% | -3.6% | 14.2% | -14.4%
COc1ccc(-c2ccc(OC)c(OC)c2OC)c(OC)c1OC | -1.3% | x | -1.2 | 6.9% | 0.6% | x | -6.2%
Cc1cccc(OCCCn2c(=O)oc3ccccc32)c1 | x | -2.6 | -2.1 | 1.0% | -1.5% | 10.7% | 1.4%
CCCc1ccc(-c2csc(NC(=O)Cc3cccs3)n2)cc1 | -3.0% | 2.1 | 3.8 | 6.5% | -1.9% | 4.4% | -17.6%
COc1cc(OC)c2c(-c3ccccc3)cc(=O)oc2c1C(CCN1CCCCC1)c1ccc(N(C)C)cc1 (stereo unspecified) | 0.2% | -0.8&6.3 | -4.2 | -1.2% | 4.6% | u | -15.1%
COc1cc(NC(=O)C2=CC(c3ccco3)=NS(=O)(=O)N2C)cc(OC)c1OC | 1.3% | x | 6.5 | 0.6%&-1.3% | -2.3% | 3.1% | -9.2%
Cc1ccc2cc(C)c3nnc(SCC(=O)NCc4ccco4)n3c2c1 | -4.9% | 5.8 | -1.8 | 2.8%[38.3 µM] | 0.8% | -4.5% | -5.9%
CCC1=Nc2cc(C(=O)NCC3CCCO3)ccc2Sc2ccc(Cl)cc21 (stereo unspecified) | 2.6% | -0.1 | 1.0 | 0.5% | 29.7% | 3.8% | u
Cc1ccc(-n2c3c(c(=O)[nH]c2=O)C(NS(=O)(=O)c2ccc(Cl)cc2)(C(F)(F)F)C(=O)N3)cc1 (stereo unspecified) | -6.5%&-19.0% | 0.2 | -4.4 | 1.1%&3.9% | 9.4% | 12.5% | -0.8%
COc1ccc(C)cc1NC(=S)NNC(=O)c1ccccc1Cl | 8.6% | 1.7 | -7.5 | -0.9%[38.3 µM] | -8.5% | 15.3% | 15.7%
O=C(Cc1ccc(F)cc1)Nc1cccc(S(=O)(=O)N2CCCC2)c1 | x | x | -2.2 | -2.1% | -9.3% | x | -13.3%[15.4 µM]
O=c1c2ccccc2ncn1-c1ccccc1F | x | -0.5 | 0.9 | 0.3% | 5.1% | 1.5% | u
COc1ccc(-c2nc(CS(=O)(=O)CC(=O)NC3CCCCC3C)c(C)o2)cc1 (stereo unspecified) | 6.2% | -0.4 | -0.1 | 4.9% | -8.9% | 21.8% | u
Cc1c(Cl)cccc1Nc1nc(N)nc(CN2CCc3ccccc3C2)n1 | -3.4% | 2.7 | -0.6 | -0.1% | 9.7% | 15.1% | -32.8%[inhibitor]
O=C(Nc1cccc(F)c1)c1ccc(-c2cccnc2)c2ccoc12 | -11.0% | x | 2.7 | -0.3% | x | x | x
COc1ccc(-c2[nH]n(-c3ccc([N+](=O)[O-])cc3)c(=O)c2C=NCC2CCCO2)cc1 (stereo unspecified) | x | 7.1 | -1.0 | 3.5% | x | 13.9% | 7.1%[15.4 µM]
O=C(NCc1ccccc1)c1ccc(S(=O)(=O)N2CCCCCC2)cc1 | 3.4% | x | 0.1 | 4.6% | x | x | -11.6%
O=C(Nc1ccccc1)[C@@H]1CC=C[C@@H]2CCN(Cc3ccccc3)C(=O)[C@@H]21 | -0.1%&-0.1% | x | -2.5 | -1.1% | 2.2% | x | x
CC1=NC(=O)C(N=Nc2cccc(O)c2)N1c1ccccc1 (stereo unspecified) | -0.9% | -0.4 | 0.4 | 1.7%[38.3 µM] | -3.8% | -7.0% | 34.4%
COc1ccc(C(=O)Nc2c(F)c(F)c(F)c(F)c2F)c(OC)c1 | -2.2% | 0.4 | -5.2 | 1.3% | 0.0% | 14.6% | -22.6%
CN(C(=O)CCCN1C(=O)c2ccccc2C1=O)C1CCCCC1 | -0.8% | x | -2.5 | 3.2% | 8.3% | x | u
COC(=O)c1cccc(NC(=O)CCCOc2ccccc2)c1 | -2.6% | -2.8 | -3.1 | -1.5% | 0.2% | -2.0% | 3.8%
O=C(NNC(=S)NC(=O)c1cccnc1)c1ccc(F)cc1 | x | 0.5 | -3.4 | 2.2% | -9.5% | -17.5% | -18.6%[15.4 µM]
CSC1=NCCN1C(=O)COc1ccc2ccccc2c1 | -5.7% | 2.5 | -0.8 | 2.5% | -4.3% | 10.6% | 13.2%
COCCNC(=O)CS(=O)(=O)Cc1nc(-c2ccc(C)cc2)oc1C | -14.2% | -2.5 | -2.3 | -0.8% | 5.2% | 12.1% | 0.1%
Cc1cc(OC(C)C(=O)NCc2ccccn2)c2c(C)c(C)c(=O)oc2c1 (stereo unspecified) | 3.7% | x | 5.7 | 7.1% | 0.7% | 12.9% | -17.2%
CCOC(=O)C1CCCN(C(=O)c2ccc(Cl)c(S(=O)(=O)N3CCCCCC3)c2)C1 (stereo unspecified) | x | -2.1 | -0.3 | 3.4% | -11.5% | -21.0% | 19.6%
FC(F)(F)c1cccc(Cn2cnc(NC(=S)NCCc3ccccc3)n2)c1 | 2.0% | -1.3 | -0.6 | 1.0% | 4.6% | 26.8% | u
O=C(/C=C\c1ccccc1OC(=O)c1ccccc1F)c1cc2ccccc2o1 | -0.8% | 3.4 | -6.0 | -3.9% | -7.8% | u | -0.9%[15.4 µM]
COc1ccccc1C/C(N)=N/OC(=O)COc1ccc2ccccc2c1 | -7.6% | 3.1 | -0.7 | 8.3%[38.3 µM] | -1.8% | -0.4% | -26.0%
O=C1Nc2ccc(S(=O)(=O)N3CCCC3)c3ccc(S(=O)(=O)N4CCCC4)c1c23 | 1.0% | -8.4 | -1.9 | -2.3% | -0.1% | 12.1% | -45.9%[inhibitor]
O=C(NCCc1ccccc1Cl)C1CCC(=O)N(CC2CCCCC2)C1 (stereo unspecified) | -0.3% | -3.3 | -1.9 | -1.8% | 4.5% | 2.2% | 7.0%
Cc1nnn(C23C[C@@H]4C[C@@H](CC(C(=O)N5CCN(c6ccccc6)CC5)(C4)C2)C3)n1 | 1.5% | 4.2 | 4.7 | -1.2% | 2.8% | 4.6% | -20.3%
O=C(N/C(=C/c1cccc([N+](=O)[O-])c1)C(=O)N1CCCCC1)c1ccco1 | -0.6% | 0.0 | -0.5 | -1.0% | -11.5% | 7.4% | -51.9%[inhibitor]
O=C1CN(C(=O)CNCc2ccc(Cl)cc2)c2ccccc2N1 | -2.8% | 38.3[activator] | -5.8 | 1.2% | 3.8% | u | -47.0%[inhibitor]
O=C(NCc1cccnc1)C1CCCN(S(=O)(=O)c2ccc(Cl)cc2)C1 (stereo unspecified) | -1.6% | -1.8 | -3.3 | 2.4% | 5.1% | -3.6% | -3.9%
O=[N+]([O-])c1cc(C(F)(F)F)ccc1NC1CCN(Cc2ccccc2)CC1 | -4.4% | -4.6 | -0.8 | 13.6% | -8.8% | -5.0% | -0.1%[15.4 µM]
CN(CC(=O)Nc1ccc(F)cc1)C(=O)c1cc([N+](=O)[O-])ccc1N1CCOCC1 | -0.8% | x | -4.1 | 0.8% | 7.9% | x | u
O=S(=O)(NCc1ccco1)c1cnc(Cl)c(Br)c1 | -1.0% | 3.6 | 0.8 | 0.5% | 2.7% | -0.4% | 1.7%
Cc1cccc(/C=N/Nc2nncc3ccccc23)c1 | x | 7.0 | -0.4 | 1.5% | -4.9% | -21.0% | 2.7%[15.4 µM]
C/C=C/C(=O)OCC(=O)Nc1cccc(F)c1 | -1.1% | 0.9 | -1.2 | 1.0% | 18.7% | 9.1% | -15.2%
Nc1ccc(N2CCN(c3ccc(Cl)c(Cl)c3)CC2)cc1 | 2.2% | -1.3 | 5.9 | u | 9.5% | -15.7% | -45.3%
